Compound activity (PubChem BioAssay)
SARS PLP yeast = SARS-CoV PLP inhibition in yeast; actives 0.19% (n = 330,000); Potency, µM (top dose mostly 32.9 µM), for inactives: at the highest dose activity, positive = growth rescue; S. cerevisiae expressing SARS-CoV PLpro, growth rescue; control for the full effect not named in the record; further: 0% is about no effect; nearly all actives have a fitted effect of over 55% in size; growth read by luminescence after 48 h
RE007 growth inh = less growth of the S. pombe RE007 Vpr strain; Potency, µM (highest dose often 92.2 µM), for the others: at the top dose activity change, negative = less growth; S. pombe RE007 Vpr strain, BacTiter-Glo ATP luminescence, 24 h; control for the full effect not named in the record; actives 0.21% (n = 360,000); active = well fitted falling curve with a large enough effect; inconclusive = small, poorly fitted or top-dose-only effect; inactive = no such curve, though single readings can be large or run the other way;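 further: on the % scale 0 is the no-effect control and ±100 the full control effect; nearly all actives have a fitted effect of over 50% in size; the assay follows cell death caused by Vpr and the record does not say whether a fall means rescue or toxicity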
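Fission yeast RE007 carrying one integrated HIV-1 vpr copy, seeded at OD 0.01 in PMG+AL medium with 23 nL pinned compound. Grown 24 h at 30 degrees; viability read by BacTiter-Glo luminescence after 5 min.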
LASV entry inh = inhibitors of Lassa virus binding or cell entry | Lassa virus pseudotype entry inhibition, cell reporter; control for the full effect not named in the record | Potency, µM (titrated, usually from 37.9 µM), inactives show at the highest dose activity change, negative = inhibition, most hits filed as inhibitors | actives 1.2% (n = 300,000); active means well fitted inhibition curve with a large enough effect; inconclusive means small, poorly fitted or top-dose-only effect, or effect the other way; inactive means flat fitted curve, though single readings scatter; tested in HEK293 cells; further: on the % scale 0 is the no-effect control and ±100 the full control effect; nearly all actives have a fitted effect of over 50% in size; luciferase read-out
Cruzain inh noDet = cruzain (T. cruzi) inhibition without detergent; P25779; purified cruzain, Z-FR-AMC fluorescence, no detergent; Potency, µM, for the others: max response, negative = inhibition, hits mostly inhibitors; actives 2.3% (n = 200,000); AID 1476; active means well fitted curve in the direction sought with a large enough effect; inconclusive means small, poorly fitted or top-dose-only effect, or another doubt; inactive means no such curve, though single readings can be large; an effect the other way counts as inactive or inconclusive;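 further: plate controls were enzyme without inhibitor for no effect and buffer without enzyme for full effect; nearly all actives have a fitted effect of over 40% in size; top concentration of the series not given in the record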
Target sequence (P25779 123-467 limits assumed): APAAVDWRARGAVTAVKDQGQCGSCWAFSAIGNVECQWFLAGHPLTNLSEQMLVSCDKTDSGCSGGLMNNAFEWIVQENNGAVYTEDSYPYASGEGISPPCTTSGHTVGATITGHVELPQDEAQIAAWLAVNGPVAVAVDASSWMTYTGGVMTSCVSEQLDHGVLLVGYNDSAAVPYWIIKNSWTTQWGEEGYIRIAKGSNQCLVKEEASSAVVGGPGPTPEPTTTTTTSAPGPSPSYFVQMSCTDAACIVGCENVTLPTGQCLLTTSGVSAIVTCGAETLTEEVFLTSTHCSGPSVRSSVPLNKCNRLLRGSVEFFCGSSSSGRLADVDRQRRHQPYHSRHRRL
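Detergent-free condition (0.00005% Triton X-100) in acetate buffer pH 5.5 with DTT. 1.5 nM enzyme and compound were pre-mixed 15 min, then 2 uM Z-FR-AMC substrate added; reaction progress from fluorescence change between first and third reads (60 s).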
MARV entry inh = blocks Marburg virus binding to or entry into cells | Potency, µM (top dose mostly 37.8 µM), for inactives: top-dose activity change, negative = inhibition, hits mostly inhibitors | AID 540276 | Marburg virus pseudotyped entry inhibition, cell reporter; control for the full effect not named in the record; about a third of the inactives were read at about 46 µM | actives 1.8% (n = 300,000); active = well fitted inhibition curve with a large enough effect; inconclusive = small, poorly fitted or top-dose-only effect, or effect the other way; inactive = flat fitted curve, though single readings scatter; tested in HEK293 cells; about a fifth of its hits are not listed in these tables; further: on the % scale 0 is the no-effect control and ±100 the full control effect; luciferase read-out
StopGo reporter = FMDV 2A StopGo reporter, luciferase signal. AID 1159524. Potency, µM (doses to about 57.9 µM), for the others: at the highest dose signal change, negative = less light. human cells with a luciferase reporter of 2A StopGo recoding; control for the full effect not named in the record. actives 1.2% (n = 410,000); active = well fitted falling curve with a large enough effect; inconclusive = small, poorly fitted or top-dose-only effect; inactive = no such curve, though single readings can be large or run the other way; tested in HEK293T cells; further: on the % scale 0 is the no-effect control and ±100 the full control effect; nearly all actives have a fitted effect of over 45% in size; luciferase light after 4 h
Cruzain inh Det = cruzain (T. cruzi) inhibition with detergent; actives 0.43% (n = 200,000); Potency, µM, inactives show max response, negative = inhibition, usual class: inhibitors; AID 1478; purified cruzain, Z-FR-AMC fluorescence, 0.01% Triton; P25779; active means well fitted curve in the direction sought with a large enough effect; inconclusive means small, poorly fitted or top-dose-only effect, or another doubt; inactive means no such curve, though single readings can be large; an effect the other way counts as inactive or inconclusive;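 further: plate controls were neutral wells for no effect and buffer without enzyme for full effect; nearly all actives have a fitted effect of over 40% in size; top concentration of the series not given in the record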
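Enzyme 1.5 nM, Z-FR-AMC 2 uM, NaOAc 100 mM pH 5.5, DTT 5 mM, Triton X-100 0.01%; 15 min RT compound preincubation; kinetic ex360/em450, 60 s delta.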
NS1 function inh = influenza NS1 inhibition. AID 2326. Potency, µM (series often up to 46.1 µM), inactives show at the top dose activity, positive = more growth. actives 0.4% (n = 270,000). S. cerevisiae slowed by influenza A NS1, growth recovery by OD600; further: actives are rising curves; nearly all actives have a fitted effect of over 50% in size
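S. cerevisiae expressing influenza A NS1, grown in glucose, washed, then diluted 1:100 into pH 6.0 -URA galactose medium with 23 nl compound. Growth recovery read as OD600; NS1-free strain serves as control.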
* marks the source's active call; other numbers are inactive results; ? = inconclusive; . = not tested or not shown; [ ] = remark or other dose. Unless noted, the call rests on the fitted dose curve; in most records, active means well fitted rising curve with a large enough effect; inconclusive means small, poorly fitted or top-dose-only effect; inactive means no such curve, though single readings can be large or run the other way. Potency means the concentration at half of the fitted maximal effect. An unsorted share of the library; about 4.7% have a hit in one of these screens.

SMILES	SARS PLP yeast	RE007 growth inh	LASV entry inh	Cruzain inh noDet	MARV entry inh	StopGo reporter	Cruzain inh Det	NS1 function inh
COc1ccccc1CNC(=O)C1=CCN(S(=O)(=O)c2ccc(C)cc2)CC1	-1%	-2%	.	.	.	0%	.	-6%
COc1ccc(Cl)cc1NC(=O)C(C)n1c(=O)cc(C(F)(F)F)c2c(C)nn(C)c21 (centres undefined)	.	.	-1%[46.1 µM]	-2%	.	0%	7.1%	.
CCN(CC(=O)Nc1ccc(NC(C)=O)cc1)C(=O)/C=C/c1ccc2c(c1)OCO2	-6%	1%	-10%	.	?	-1%	.	.
CN(C)/C=C(\C#N)C(=O)c1cccnc1Oc1ccc(F)cc1F	1%	16%	-2%	1%	6%	9%	-0.6%	5%
Cc1ccc(C)c(-n2c(CNC(=O)c3ccco3)nnc2SCC(=O)Nc2nccs2)c1	9%	-2%	-22%	-9%	0%	-16%	9.6%	-15%
COc1ccc(-c2cc3nc(C)cc(C)n3n2)cc1	14%	-14%	?	1%	?	51%[activator]	-7.3%	-12%
COc1ccccc1N/N=C(\C#N)C(=N)N1CCOCC1	-11%	-3%	.	.	10%[46.1 µM]	2%	.	.
CNS(=O)(=O)c1ccc(NC(=O)c2ccoc2C)cc1	0%	-4%	17%	.	?	33%[activator]	.	4%
COc1ccc(NC(=O)CN2CCN(S(=O)(=O)c3ccc(Br)cc3)CC2)c(OC)c1	0%	6%	.	.	.	0%	.	2%
COc1cccc(OCCOc2c(OC)cccc2OC)c1	2%	-2%	1%	13%	23%	13%	-6.2%	-64%
CC(NC(=O)c1ccc2c(c1)OCO2)C(c1cccs1)N1CCN(c2ccccc2)CC1 (centres undefined)	1%	?	0%	.	?	-8%	.	-11%
CC(C)(C)c1ccc(C(=O)Nc2sc3c(c2C(=O)O)CCC3)cc1	-2%	?	?	.	3.2µM*	-19%	.	0%
O=C(N/N=C/c1cc(Cl)ccc1O)C(=O)Nc1ccccc1OC(F)(F)C(F)F	2µM*	-25%	?	-11%	?	-25%	-2.1%	2%
O=C(O)CNC(=O)CC1S/C(=N/N=C2/NC(=O)CS2)NC1=O (centres undefined)	2%	-7%	23%	.	-11%[46.1 µM]	8%	.	3%
COCCN1C(=O)N(c2cccc(C)c2)C(=O)C1CC(=O)Nc1ccc(OC)cc1 (centres undefined)	?	-12%	.	.	.	-2%	.	-1%
Cc1ccc(C)c(NC(=S)NNC(=O)c2cc3c(s2)CCC(C)C3)c1 (centres undefined)	?	25%	2%	-20%	?	-9%	-6.0%	8%
CCCN(CC(=O)Nc1ccccc1OC)C(=O)c1ccc(S(=O)(=O)Nc2ccccc2)cc1	.	-9%	-30%	.	?	7%	.	.
CC1(C)C(=O)Nc2ccccc2N1C(=O)COC(=O)c1ccc([N+](=O)[O-])o1	-5%	23%	28%	.	-13%	-2%	.	.
CC(=O)c1ccc(NC(=O)CCCN2C(=O)C(c3ccccc3)Oc3cccnc32)cc1 (centres undefined)	-5%	7%	.	.	.	-12%	.	-9%
O=C(c1cc(-c2ccccc2)on1)N1CCN(Cc2ccc3c(c2)OCO3)CC1	-6%	10%	13%	-2%	-2%	.	-1.3%	-47%
COC(=O)/C=C1\N/C(=N\c2nc(C)cc(C)n2)N(c2ccccc2)C1=O	2%	-19%	2%	.	14%	?	.	5%
N#Cc1cc(-c2ccccc2)nc(NN)n1	-2%	2%	?	.	?	-12%	.	3%
Nc1nc(CN2CCN(c3cccc(Cl)c3)CC2)nc(N2CCCc3ccccc32)n1	-3%	13%	-6%	-29%	?	-5%	-8.6%	-56%
CCn1c(SCC(=O)OC)nnc1C1CCCCC1	3%	3%	13%	-3%	-17%	7%	5.5%	-7%
COc1ccc(C)cc1S(=O)(=O)NCC(c1cccnc1)N1CCc2ccccc2C1 (centres undefined)	-9%	5%	?	.	?	11%	.	-15%
(cont.)
SMILES	SARS PLP yeast	RE007 growth inh	LASV entry inh	Cruzain inh noDet	MARV entry inh	StopGo reporter	Cruzain inh Det	NS1 function inh
CC1CCN(c2nn3c(=O)c(C(=O)NCCc4ccc(Cl)cc4)cnc3s2)CC1	.	.	-2%[46.1 µM]	5%	.	?	4.2%	.
O=C(OCCOCCOC(=O)Oc1ccccc1)Oc1ccccc1	.	-29%	?	.	-16%	-15%	.	.
CCOCc1c(C(=O)Nc2ccccc2N2CCN(C)CC2)oc2ccccc12	-8%	5%	4%[46.1 µM]	.	?	-24%	.	.
CCOC(=O)C(C)N1C(=O)S/C(=C/c2ccc3c(c2)n(C)c(=O)n3C)C1=O (centres undefined)	-1%	2%	.	.	.	-26%	.	5%
CCOc1ccc(-n2nc3c(Cl)nnc(C)c3c2C)cc1	-2%	11%	3%	-5%	0%	-17%	1.1%	5%
FC(F)(F)c1ccccc1NC(=S)Nc1ccccc1	-3%	15%	27%[46.1 µM]	.	?	6%	.	0%
c1cncc(-c2nc(-c3ccc4c(c3)OCO4)cs2)c1	-8%	15%	-24%	-8%	-2%[46.1 µM]	6%	-12%	-9%
CCOC(=O)c1cc(-c2ccc(C)cc2)n(CCC(=O)NCCCOC)c1C	-3%	-4%	-17%	?	?	-2%	2.2%	4%
CN(C)S(=O)(=O)N1CCC(n2nccc2NC(=O)CCc2ccccc2)CC1	?	-2%	4%	.	-13%[46.1 µM]	-20%	.	-7%
COc1ccc(NC(=O)c2oc3ccccc3c2NC(=O)COc2ccc(F)cc2)c(OC)c1	.	.	-6%[46.1 µM]	8%	0%[46.1 µM]	-5%	-1.2%	.
COC(=O)c1c(NC(=O)CSc2nc3nc(C)cc(C)n3n2)sc(C)c1C	7%	7%	-1%	?	4%	-9%	-12%	8%
CCOc1ccc(CNC(=O)C2CCCN(S(=O)(=O)c3ccc4c(c3)CCCC(=O)N4)C2)cc1 (centres undefined)	.	.	?	5%	.	?	-1.0%	.
CCOC(=O)C1=C(C)N(c2ccccc2)C(=O)C1	18%	1%	23%	-9%	-1%	2%	-2.7%	13%
COc1cc(NC(=O)c2ccc(F)cc2)ccc1NC(=O)c1cc2ccccc2o1	0%	15%	.	.	.	15%	.	-2%
Cc1ccc(CNc2ccc(N3C(=O)CCCC3=O)cc2[N+](=O)[O-])cc1	-3%	6%	10%	-1%	1%	-17%	-6.3%	13%
O=c1c2ccccc2c2c(O)nc(-c3ccccc3)n2n1Cc1ccccc1	3%	-5%	17%	4µM*	0%	-16%	0.7%	3%
CCOc1ccc(NC(=O)CCNC(=O)N2C[C@H]3C[C@@H](C2)c2cccc(=O)n2C3)cc1	3%	-6%	.	.	.	-9%	.	-3%
c1ccc2[nH]c(NCCN3CCOCC3)nc2c1	.	6%	8%	-9%	22%	5%	-2.5%	6%
COc1ccc(CN2CCC(CO)(Cc3ccccc3C(F)(F)F)CC2)c(F)c1	0%	0%	.	.	.	?	.	-1%
Cc1ccccc1Oc1ccc(Oc2ccccc2C)nn1	-4%	-4%	19%	-11%	18%	.	0.4%	-7%
CC(C)COC(=O)/C(C#N)=C/c1c[nH]c2ccccc12	6%	-16%	?	10%	?	18%	-17%	-1%
CN(C(=O)CS(=O)(=O)c1cn(CC(=O)N2CCOCC2)c2ccccc12)c1ccccc1	4%	5%	16%[46.1 µM]	.	?	0%	.	.
CN(C(=O)CSc1nnc(N)s1)c1c(N)n(Cc2ccccc2)c(=O)[nH]c1=O	7%	4%	25%	7%	20%	-14%	5.6%	?
C/C(=N/NC(N)=S)c1ccccc1[N+](=O)[O-]	1%	8%	-1%	13µM*	-6%	-20%	16µM*	8%
COc1ccccc1C(=O)NCCC(=O)N1CCCCCCC1	-2%	-5%	-24%	.	-9%	-13%	.	.
Continuation.
SMILES	SARS PLP yeast	RE007 growth inh	LASV entry inh	Cruzain inh noDet	MARV entry inh	StopGo reporter	Cruzain inh Det	NS1 function inh
O=C(CCCn1c(=O)c2ccccc2n(CC(=O)Nc2cccc(C(F)(F)F)c2)c1=O)NCc1ccc2c(c1)OCO2	.	.	2%[46.1 µM]	17%	-10%[46.1 µM]	5%	-2.1%	.
COC(=O)C1=C(C)NC(=O)CC1c1cc2c(cc1Br)OCO2 (centres undefined)	-5%	-7%	0%	-2%	-14%	-26%	-2.6%	-15%
O=C(NCC(c1cccs1)N1CCOCC1)c1cc(Cl)ccc1[N+](=O)[O-] (centres undefined)	9%	-6%	9%	.	-8%[46.1 µM]	-8%	.	.
COc1ccc(C(=O)Nc2cccnc2)cc1S(=O)(=O)N1CCOCC1	6%	-6%[3.69 µM]	1%	8%	16%	-15%	11%	-1%
O=C(Nc1ccc(Cl)cc1F)c1ccc2c(c1)C(=O)N(Cc1ccncc1)C2=O	1%	19%	-2%[46.1 µM]	.	-16%[46.1 µM]	-5%	.	.
CS(=O)(=O)N(CC(=O)O)c1ccc2c(c1)OCO2	4%	21%	3%	6%	16%[46.1 µM]	-20%	1.1%	-2%
Cc1ccccc1C(=O)N1CCN(c2ccc(NC(=S)NC(=O)c3cccs3)cc2)CC1	0%	6%	.	.	.	-12%	.	?
O=C(COc1ccc2ccccc2c1Br)N1CCCC1	-8%	-24%	7%[46.1 µM]	.	?	15%	.	-14%
COc1ccc(CNC(=O)c2ccc3[nH]c(C)c(C)c3c2)c(OC)c1	.	.	?	-3%	.	4%	-3.7%	.
CCc1ccc(/C=C2/C(=O)N(c3ccccc3)C(=S)N2CC(=O)OC)s1	-12%	38%	?	-5%	?	-11%	-4.5%	-6%
N/C(=N\OC(=O)/C=C/c1ccccc1Cl)c1ccccn1	-5%	-7%	-23%	.	9.2µM*	-23%	.	.
Cc1ccc(N(Cc2ccccc2F)S(C)(=O)=O)cc1C	-6%	-6%	-2%	-13%	9%	-11%	-5.8%	0%
CSc1ncccc1C(=O)OCC(=O)NC1CC1	-2%	0%	14%[46.1 µM]	.	18%	-14%	.	.
Cc1ccc(CN2CCN(Cc3ccc(-n4cccn4)cc3C)CC2CCO)cc1 (centres undefined)	1%	3%	1%[46.1 µM]	.	?	-12%	.	5%
Cc1noc(NS(=O)(=O)c2ccc(N3Cc4ccccc4C3=O)cc2)c1C	1%	7%	16%	2%	-2%	.	-0.2%	-31%
COc1ccccc1NC(=O)CSc1nncs1	-1%	14%	13%	.	-7%	13%	.	.
Cc1ccc(Cl)cc1NC(=O)c1cc2c(=O)n3cccc(C)c3nc2n1C	.	.	-7%[46.1 µM]	7%	.	-8%	-2.1%	.
